Compound activity as filed in PubChem.
CBX7 inh – inhibitors of human CBX7 binding to H3K27me3 peptide; O95931; AlphaScreen His6-CBX7 / biotin-H3K27me3 peptide binding; hits give low values; normalised signal (fraction of DMSO) (concentration not given with the values); 66,000 compounds, 1.1% hits; AID 1224903; in the data active = normalised signal below about 0.5;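 also: 100 nL library stock added to about 20 µL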
Target sequence (O95931 whole entry, looked up): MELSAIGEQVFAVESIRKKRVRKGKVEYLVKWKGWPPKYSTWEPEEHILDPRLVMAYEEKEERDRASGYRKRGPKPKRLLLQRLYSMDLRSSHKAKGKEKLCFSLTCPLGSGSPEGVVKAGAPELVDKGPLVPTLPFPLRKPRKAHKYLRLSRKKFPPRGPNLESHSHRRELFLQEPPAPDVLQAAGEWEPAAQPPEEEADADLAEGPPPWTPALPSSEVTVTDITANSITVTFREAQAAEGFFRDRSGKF
CBX7 inh z-score – also measured in CBX7 inh; calls as there; z-score; measured here: z-score of CBX7 signal; some inactives read as strong as hits; reference of the scale not given here;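 same signal on another scale; lower means less binding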
* hit, by the source's call; & = joins results of further samples.

molecule | CBX7 inh z-score | CBX7 inh
c1ccc(-c2nc3c4ccccc4nc(N4CCN(c5ccccn5)CC4)n3n2)cc1 | 0.47 | 1.03
CCc1ccccc1Nc1cc(C(=O)NCC2CCCO2)c2ccccc2n1 (configuration not stated) | -1.54 | 0.901
COc1ccc(CN2CCN(Cc3ccc(C(F)(F)F)cc3)CC2)cc1 | 0.751 | 1.03
CCN(CC)S(=O)(=O)c1ccc2c(c1)N(CC(=O)NC1CCCCCC1)C(=O)CS2 | -0.199 | 0.987
Cc1cccc(-c2nc(SCC(=O)Nc3nccs3)c(-c3ccccc3)[nH]2)c1 | -0.369 | 0.978
CCOc1ccc2nc(NC(=O)CCNS(=O)(=O)c3ccc4c(c3)CCC(=O)N4)sc2c1 | 0.153 | 1
CCOc1ccc(CNC(=O)c2ccc3c(c2)ncn3C2CCCC2)cc1OC | 0.513 | 1.05
CC(C)(O)C#Cc1ccc(C(=O)NCc2cccnc2)cc1 | -0.183 | 0.993
COc1ccc(-n2c(C)nc3cc(C(=O)NCc4ccc(F)cc4)ccc32)cc1 | -0.0695 | 0.997
Cc1cc(N2CCCC2)nc2ccc(NC(=O)CCC(=O)NC3CCCCC3)cc12 | -0.792 | 0.917
COc1ccc(C(=O)Nc2c(-c3ccc(F)cc3)nc3ccccn23)cc1OC | -1.06 | 0.934
O=C(NCCc1ccccc1)C1CC(=O)N(C2CCCCCC2)C1 (configuration not stated) | 2.29 | 1.05
CCCCSc1nnc2c(n1)OC(C)(CC)Nc1ccccc1-2 (configuration not stated) | -2.46 | 0.772
Cc1cccc(Nc2nc(-c3c(C)nc4cc(C)ccn34)cs2)c1 | -2.67&-0.133 | 0.856&0.882
COc1ccc(C(=O)NCCc2cc3ccc(C)cc3[nH]c2=O)c(OC)c1 | 0.0971 | 1
Cn1c2ccccc2c2c(C(=O)NCCN3CCOCC3)cn(C3CCCCC3)c(=O)c21 | -1.7 | 0.931

Random excerpt: two compounds from above.
molecule | CBX7 inh z-score | CBX7 inh
COc1ccc(-n2c(C)nc3cc(C(=O)NCc4ccc(F)cc4)ccc32)cc1 | -0.0695 | 0.997
Cc1cccc(Nc2nc(-c3c(C)nc4cc(C)ccn34)cs2)c1 | -2.67&-0.133 | 0.856&0.882

Next part.
molecule | CBX7 inh z-score | CBX7 inh
Cc1ccccc1Nc1c(-c2cccc(Br)c2)nc2ccccn12 | 0.71 | 1.07
CC1(C)OC2OC(C(=O)Nc3ccc4c(c3)OCCO4)C3OC(C)(C)OC3C2O1 (configuration not stated) | 0.448 | 1.03
Cc1nc2c(C(=O)NCCc3ccccc3)cnn2c(C)c1Cc1ccccc1Cl | -4.09 | 0.851
COC(=O)c1ccc(N2C(=O)CC(N3CCC(O)(c4ccc(Cl)cc4)CC3)C2=O)cc1 (configuration not stated) | 0.863 | 1.04
COc1ccc(CC(=O)Nc2ccc(-c3noc(-c4ccc(F)cc4)n3)cc2)cc1 | 0.102 | 1.01
O=C(Nc1ccc(Br)cc1)C(Cc1ccccc1)NS(=O)(=O)c1cccs1 (configuration not stated) | 1.58 | 1.05
CN1C2CCC1CC(N(CCc1c[nH]c3ccccc13)C(=O)c1ccc(Cl)cc1)C2 (configuration not stated) | -0.548 | 0.919
CN(C)CCSc1nc(O)c(-c2ccccc2)c(=O)[nH]1 | 0.345 | 1.01
CCOC(=O)c1cnc2cc(C(F)(F)F)ccc2c1Nc1ccccc1F | -1.73 | 0.9
CN(CCc1ccccn1)c1nc(-c2ccccc2F)nc2ccccc12 | -0.361 | 0.964
CCOc1ccc(-c2nc(-c3ccc(C)cc3)no2)cc1OCC | 0.128 | 1.01
CCCN(CCC)C(=O)Cn1nc(Cc2cccnc2)c2ccccc2c1=O | -0.596 | 0.982
O=C(c1ccccc1)N1CCN(c2ccc3nnc(-c4ccccc4)n3n2)CC1 | -1.49 | 0.894
COc1ccccc1NC(=O)C1CCCN(S(=O)(=O)c2cccc3cccnc23)C1 (configuration not stated) | -2.15 | 0.955
COc1ccc(CCNC(=O)c2cc(-c3cccc(O)c3)on2)cc1OC | 0.841 | 1.03
COCCN1Cc2cccc(C(=O)Nc3cccc(Cl)c3C)c2C1=O | 0.269 | 1.02
O=C(Nc1nc2ccccc2s1)c1cccnc1 | 1.78 | 1.1
Cc1ccccc1Nc1nc(-c2sc(N)nc2C)cs1 | -4.31 | 0.66
Fc1ccccc1CSc1nc(NCC2CCCO2)c2ccccc2n1 (configuration not stated) | -1.17 | 0.582
CC(=O)Nc1ccc(S(=O)(=O)NCCc2cc3c(C)ccc(C)c3[nH]c2=O)cc1 | 2.55 | 1.14
COc1ccccc1N1CCN(c2nc3cccnc3s2)CC1 | -0.832 | 0.967
COc1ccc(OCc2nc(C#N)c(NCCN(C)C)o2)cc1 | 0.235 | 1.04
C(=C\c1ccccc1)/Cn1c(COc2ccccc2)nc2ccccc21 | -1.03 | 0.961
Cc1c(C(=O)N2CCCCC2)oc2ccc(S(=O)(=O)N3CCOCC3)cc12 | 0.299 | 1.03
C=CCNC(=O)c1cc(-c2ccc(C)c(C)c2)nc2ccccc12 | 0.0791 | 1.01
O=C1C(c2ccccc2F)N(CCc2ccccc2)C(=O)CN1C1CCCCCC1 (configuration not stated) | -2.03 | 0.882
O=C(Nc1ccc(-c2nc3ccccc3o2)cc1)c1ccc(Oc2ccccc2)cc1 | 1.08 | 1.14
COC(CNC(=O)C1CCN(c2cc(C)nc3c(-c4ccc(Cl)cc4)c(C)nn23)CC1)OC | 0.158 | 1.06
COc1ccc(C(=O)N2CC(=O)Nc3ccc(Cl)cc3C2c2ccccc2)cc1OC (configuration not stated) | 1.01 | 1.04
CC(C(=O)NCCCN1CCc2ccccc2C1)n1ncc2ccccc21 (configuration not stated) | -0.0721 | 0.995
O=c1[nH]c2ccc(NCc3ccc(OCc4ccc(Cl)cc4)cc3)cc2[nH]1 | -1.48 | 0.86
COc1ccc(CN2C(=O)CCC2(C)C(=O)NCc2cccnc2)c(OC)c1 (configuration not stated) | 0.872 | 1.02
CC1(C)NC(=O)N(CC(O)COc2cccc(F)c2)C1=O (configuration not stated) | 2.99 | 1.09
COc1cc(N)c(Cc2nccc3cc(OC)c(OC)cc23)cc1OC | -2.28 | 0.95
CCC(=O)N1CCc2cc(S(=O)(=O)NC(Cc3ccccc3)C(=O)Nc3cccc(C)c3)ccc21 (configuration not stated) | 2.86 | 1.19
O=c1[nH]c2ccccc2n1CCCOc1ccc(Cl)cc1 | 0.664 | 1.06
CCOc1ccccc1C(=O)N1CC(=O)Nc2ccc(F)cc2C1c1ccc(F)cc1 (configuration not stated) | 1.91 | 1.08
CC(C)(C)c1ccc(Oc2coc3c(CN4CCOCC4)c(O)ccc3c2=O)cc1 | 0.426 | 1.01
CCNC(=O)CC1C(=O)N(c2ccccc2)C(=O)N1Cc1ccc(C)cc1 (configuration not stated) | 1.5 | 1.04
O=C(NCc1ccccc1)c1c[nH]c2ccc(S(=O)(=O)Nc3ccccc3F)cc2c1=O | -0.993 | 0.947
COc1cccc(C(=O)Nc2nnc(CCS(=O)(=O)c3ccc4ccccc4c3)s2)c1 | 4.1 | 1.23
COc1ccc(OC)c(N2C(=O)C3C4c5ccccc5C(C(=O)O)(c5ccccc54)C3C2=O)c1 (configuration not stated) | -0.953 | 0.944
COc1cccc(CNC(=O)Cc2c(C(=O)O)[nH]c3ccc(Cl)cc23)c1 | 1.18 | 1.12
Cc1ccc(-c2noc(CCC(=O)NC3CCN(Cc4ccccc4)CC3)n2)cc1 | 0.00759 | 1
COc1ccc(-n2c(C)nc3cc(C(=O)NCc4ccc5c(c4)OCO5)ccc32)cc1 | -1.86 | 0.931
Cc1ccc(-n2cc(-c3ccccc3)nc2S(=O)(=O)CC(=O)Nc2ccc(C)cc2C)cc1 | -0.893 | 0.911
COCc1cc(=O)[nH]c(Nc2nc(C)c3ccccc3n2)n1 | 0.0155&-2.3 | 1&0.853
CC1(C)CC(=O)C2=C(C1)NC(Nc1nc3ccccc3o1)=NC2c1ccccc1 (configuration not stated) | -1.55 | 0.952
Cc1ccc(Nc2cc(C(=O)NCCC(C)C)c3ccccc3n2)c(C)c1 | 2.67 | 1.1
O=C(CC1C(=O)N(c2ccc(F)cc2)C(=O)N1Cc1ccc2c(c1)OCO2)Nc1ccc(F)cc1 (configuration not stated) | 0.607 | 1.02
Cc1ccc2cc(CCNC(=O)c3ccc4ccccc4c3)c(=O)[nH]c2c1 | 1.28 | 1.03
COc1ccc(OCC(=O)Nc2ccc(-c3nc4ccc(C)cc4s3)cc2)cc1 | 0.114 | 1.05
CCOC(CNC(=O)CN1C(=O)COc2ccc(S(=O)(=O)N(CC)CC)cc21)OCC | 1.16 | 1.07
Cc1ccc(-c2nnc(Nc3ccc(F)cc3)c3ccccc23)cc1S(=O)(=O)NCC1CCCO1 (configuration not stated) | -1.07 | 0.905
Cn1cc(C(=O)Nc2ccc3c(c2)OCO3)c2ccccc2c1=O | -0.852 | 0.974
Cc1c(C(=O)NCC2CCCO2)oc2ccc(S(=O)(=O)N3CCCCC3)cc12 (configuration not stated) | 0.0521 | 1.05

One compound at a time, as listed above. Order of screens: CBX7 inh z-score | CBX7 inh
Cn1cc(C(=O)Nc2ccc3c(c2)OCO3)c2ccccc2c1=O is entered as -0.852 | 0.974
Cc1c(C(=O)NCC2CCCO2)oc2ccc(S(=O)(=O)N3CCCCC3)cc12 (configuration not stated) is entered as 0.0521 | 1.05
O=C(CC1C(=O)N(c2ccc(F)cc2)C(=O)N1Cc1ccc2c(c1)OCO2)Nc1ccc(F)cc1 (configuration not stated) is entered as 0.607 | 1.02
COc1ccc(OCC(=O)Nc2ccc(-c3nc4ccc(C)cc4s3)cc2)cc1 is entered as 0.114 | 1.05
Cc1ccc(-c2nnc(Nc3ccc(F)cc3)c3ccccc23)cc1S(=O)(=O)NCC1CCCO1 (configuration not stated) is entered as -1.07 | 0.905

Continuation:
molecule | CBX7 inh z-score | CBX7 inh
O=C(Nc1ccc(Cl)cc1)N1CCN(c2ccc3nnc(-c4ccccc4)n3n2)CC1 | 0.417 | 1.03
Cc1oc(-c2cccs2)nc1CSCC(=O)N1CCCC1 | -0.446 | 0.955
Cc1nc2cc(NC(=O)c3ccc(S(=O)(=O)N4CCCC4)cc3)ccc2s1 | 1.26 | 1.07
CCc1cccc(C)c1NC(=O)C(NS(=O)(=O)c1ccc2c(c1)CCC(=O)N2)c1ccccc1 (configuration not stated) | -0.87 | 0.973
CCOc1ccc(CN2C(=O)c3ccccc3Sc3ccc(C(=O)NC(C)CC)cc32)cc1 (configuration not stated) | -0.53 | 0.878
CCN(CCNc1cc(C)nc2c(-c3ccccc3OC)c(C)nn12)c1ccccc1 | -0.374 | 0.851
O=C(CSc1ncnc2ccccc12)NCC1CCCO1 (configuration not stated) | 0.308 | 1.01
CCc1ccc(NC(=O)c2cnn(-c3ccc(C)cc3)c2C2CCNCC2)cc1 | 0.957 | 1.07
CCOc1ccc2nc(N3CCC(C(=O)N4CCN(c5cccc(C)c5)C(C)C4)CC3)sc2c1 (configuration not stated) | -8.94 | 0.669
COc1cccc(NC(=O)CNC(=O)Cn2ccc3ccccc3c2=O)c1 | -0.86 | 0.913
COc1cc2c(cc1OC)C(C(=O)NCCCN1CCC(C)CC1)C(c1cccnc1)N(C)C2=O (configuration not stated) | 1.94 | 1.13
COc1ccc(CCNc2oc(COc3ccc(Cl)cc3)nc2C#N)cc1OC | -0.284 | 0.954
Cc1cnn(-c2nc(-c3cccs3)cc(C(F)(F)F)n2)c1 | 1.15 | 1.04
CC(=O)N1CCc2cc(S(=O)(=O)NC(CC(C)C)C(=O)NC3CCCCCC3)ccc21 (configuration not stated) | -1.08 | 0.934
CCOC(=O)CN1C(=O)C(O)(CC(=O)c2ccccn2)c2ccccc21 (configuration not stated) | 0.643 | 1.09
Cc1onc(-c2ccccc2)c1C(=O)NCCN1CCOCC1 | 0.0684 | 1.06
NS(=O)(=O)c1ccc(CCNC(=O)Nc2ccc(Cl)cc2)cc1 | 0.912 | 1.1
Cc1cc(NC(=O)CCSc2nc(-c3ccc4c(c3)OCO4)cc(C(F)(F)F)n2)no1 | 0.954 | 1.03
c1csc(-c2nc3cnccn3c2Nc2ccc3c(c2)OCCO3)c1 | 1.08 | 1.11
O=C(CCCn1c(=O)[nH]c2ccccc2c1=O)N1CCN(c2ccccc2)CC1 | -0.0908 | 0.968
O=C(O)c1nccnc1C(=O)NCCCN1CCOCC1 | -1.32 | 0.947
Cc1ccc2c(c1)-c1c(cnn1CC(=O)Nc1ccc(F)cc1F)CO2 | 0.393 | 1.02
COc1ccccc1-c1c(C)nn2c(NCCN3CCN(Cc4ccccc4)CC3)cc(C)nc12 | 0.0658 | 1.03
COc1ccccc1-c1cc2nc(C)c(CCC(=O)Nc3cccnc3)c(C)n2n1 | -0.161 | 0.996
O=C(Nc1nc(-c2ccccc2)c(C(=O)c2ccccc2)s1)c1ccc(Cl)cc1 | -1.33 | 0.919
CCC(C)NC(=O)C1CCC(=O)N(c2ccc3c(c2)OCO3)C1c1ccc(OC)cc1 (configuration not stated) | 3.72 | 1.08
COc1cccc(N2C(=O)c3nccnc3C2=O)c1 | -0.777 | 0.94
Cc1nc2c(-c3ccccc3)c(C)nn2c(C)c1CCC(=O)N1CCCCC1 | 2.45 | 1.22
CC(C)(O)C#Cc1ccc(C(=O)N2CCC(C(N)=O)(N3CCCCC3)CC2)o1 | 0.627 | 1.01
CCOCCCNC(=O)c1ccc2c(c1)N(Cc1ccc(C)cc1)C(=O)CS2 | 1.02 | 1.03
N#Cc1ccc(C(=O)Nc2cc(-c3nc4ncccc4o3)ccc2Cl)c(F)c1 | -0.12 | 0.995
COc1cc2[nH]c(=O)n(CCCC(=O)NCc3ccc4c(c3)OCO4)c(=O)c2cc1OC | 0.608 | 1.02
COc1ccccc1NC(=O)Cn1nc(Cc2cccnc2)c2ccccc2c1=O | -0.622 | 0.968
CCN1C(=O)c2ccccc2Sc2ccc(C(=O)NC3CCCCCCC3)cc21 | -3.23 | 0.893
Cc1cccc(NC2=NC3CS(=O)(=O)CC3S2)c1 (configuration not stated) | -0.375 | 0.983
Cc1ccc(C)c(Cc2c(C)nc3nc(SCC(=O)NC4CCCCC4)nn3c2C)c1 | 1.01 | 1.1
CCn1c(=O)cc(OCC(=O)NCc2ccc(F)cc2)c2ccccc21 | -1.34 | 0.918

A portion of the library. The share of hits here may be higher or lower than overall.
